# miR-21 reporter: qHTS Assay for Modulators of miRNAs and/orActivators of miR-21. Potency, µM (top dose mostly 38.3 µM), for the others: at the highest dose reporter change, positive = more light. HeLa miR-21 FLuc reporter, luciferase, 48 h. 340,000 tested, under 10 active; active = well fitted rising curve with a large enough effect; inconclusive = small, poorly fitted or top-dose-only effect; inactive = no such curve, though single readings can be large or run the other way;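 further: % of control where 0% means no effect; miR-21 action dims this reporter so a rising signal means less miR-21 action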
#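 Using DMEM plus 10% FBS, HeLa miR-21-FLuc cells are incubated with test compounds (final up to about 40uM) for 48 hours; firefly luciferase signal is then imaged following reagent-mediated lysis.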
# Rango release inh: qHTS Assay for Inhibitors of RanGTP induced Rango (Ran-regulated importin-beta cargo) - Importin beta complex dissociation; Snurportin-1 (Homo sapiens) + GTP-binding nuclear protein Ran (Homo sapiens) + Importin …; Biochemical FRET Rango-importin beta, RanGTP-induced dissociation; Potency, µM (highest dose often 46.1 µM), for inactives: top-dose activity change, negative = inhibition; 0.071% of 340,000 active; active means falling FRET ratio curve, often poorly fitted, with flat reads before Ran was added; inconclusive means other falling curves, or compound fluorescence or quenching; inactive means flat or rising ratio curve;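 further: potency means the concentration at half of the fitted maximal effect; % of control where 0% means no effect; nearly all actives have a fitted effect of over 45% in size; -100% = wells without RanGTP and RCC1; the record marks most hits as doubtful in a second field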
#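 Compounds sat 5 min at room temperature with 0.1 uM Rango biosensor plus 0.25 uM importin beta, then FRET pre-read. RanGTP-RCC1 (0.6 uM Ran, 2mM GTP, 0.2 uM RCC1) added for 45 min, and the CFP/YFP post-read measured blocked complex dissociation.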
# Rango-impB inh: qHTS Assay for Inhibitors of Rango (Ran-regulated importin-beta cargo) - Importin beta complex formation; AID 540263, 2011; Potency, µM (titrated, usually from 92.2 µM), for inactives: at the top dose inhibition of complex formation; Rango CFP/YFP FRET sensor + importin beta, 45 min; Importin subunit beta-1 (Homo sapiens), Q14974; 0.031% of 340,000 active; active = rising FRET ratio curve, often small or poorly fitted; inconclusive = mostly compound fluorescence or quenching in the first reads; inactive = flat curves in all reads;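 further: potency means the concentration at half of the fitted maximal effect; 0% = DMSO wells and 100% = buffer wells lacking importin beta; nearly all actives have a fitted effect of over 15% in size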
#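 FRET biosensor (snurportin 1 IBB flanked by EYFP and cerulean), 50 nM, with compound 5 min, then 0.125 microM importin beta in PBS, 1 mM DTT, 0.02% Tween-20, 0.1% BSA. CFP/YFP ratio read after 45 min at room temperature; pre-read flags interference.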
# GLA inh pH 4.5: qHTS Assay for Inhibitors of Human alpha-Galactosidase at pH 4.5. Alpha-galactosidase A (Homo sapiens), P06280. 230,000 tested, under 10 active. activity change, negative = inhibition, % at 105 µM. purified enzyme, 4-MU-alpha-Gal fluorescence, pH 4.5. AID 1467, 2008; inconclusive = small, poorly fitted or top-dose-only inhibition, or a rising curve; inactive = flat fitted curve, though single readings scatter; no compound was filed as active;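 further: 0% = full activity with enzyme and -100% = basal without enzyme; dose as in the result columns while the protocol names 77 µM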
# Target sequence (P06280 whole entry, looked up): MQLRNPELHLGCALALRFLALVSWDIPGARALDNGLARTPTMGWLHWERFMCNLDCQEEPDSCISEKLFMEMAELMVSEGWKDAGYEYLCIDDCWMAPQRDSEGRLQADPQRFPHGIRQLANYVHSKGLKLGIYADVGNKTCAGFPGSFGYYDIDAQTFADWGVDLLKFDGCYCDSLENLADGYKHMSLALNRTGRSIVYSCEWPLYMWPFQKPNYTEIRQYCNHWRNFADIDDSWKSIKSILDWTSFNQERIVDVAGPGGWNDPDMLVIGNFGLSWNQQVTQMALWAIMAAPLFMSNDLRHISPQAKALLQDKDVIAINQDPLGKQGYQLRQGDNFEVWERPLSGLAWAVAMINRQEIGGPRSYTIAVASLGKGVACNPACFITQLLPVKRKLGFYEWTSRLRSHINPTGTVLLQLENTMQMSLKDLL
# The depositor's hits bear a star; ? = inconclusive; . = no result given. The list is partial; count on the stated rates, not on these rows.
Rango release inh	Rango-impB inh	miR-21 reporter	GLA inh pH 4.5	SMILES
-4%	-1.2%	-21%	.	Cc1ccccc1CC1SC(N=C(N)N)=NC1=O (stereo not drawn)
-11%	-0.2%	-45%	-2	C/C(CC(=O)Nc1ccc2c(c1)OCO2)=N\NC(=O)c1ccccc1N
5%	-0.7%	-2%	.	CCN1CCN(C(=O)CS(=O)Cc2nc(-c3cccc(C)c3)oc2C)CC1 (stereo not drawn)
-2%	3.5%	0%	.	COc1cccc(CC(NC(C)=O)C(=O)NC2CCN(C(=O)C3CCCCC3)CC2)c1OC (stereo not drawn)
1%	0.0%	0%	.	COc1ccc(CCNC(=O)CS(=O)(=O)Cc2nc(-c3ccc(C)cc3)oc2C)cc1OC
18%	-3.5%	0%	8	COc1cc(/C=C/C(=O)N2CCN(C)CC2)cc(S(=O)(=O)N2CCc3ccccc32)c1OC
-3%	5.0%	-1%	16	O=S(=O)(Nc1nc2cc3c(cc2nc1Cl)OCCO3)c1ccccc1
-2%	-7.5%	-32%	1	C=CCn1c(=NC(=O)c2ccccc2[N+](=O)[O-])sc2cc(S(C)(=O)=O)ccc21
21%	-2.1%	1%	2	CCCCn1c(=O)[nH]c(=O)c2c(C(=O)OCC)cc(-c3ccc(OC(F)F)cc3)nc21
-3%	-1.9%	-8%	.	CCOC(=O)C1CCN(CC(=O)N2CCc3ccccc32)CC1
7%	-0.7%	.	.	COc1ccc(NC(=O)c2c(C)noc2C(C)C)cc1S(=O)(=O)N1CCCCC1
13%	-2.4%	-5%	.	Cc1sc2nc[nH]c(=O)c2c1-c1ccc(F)cc1
-11%	?	-21%	-5	CC(=O)c1cnc(-c2ccccn2)s1
0%	0.8%	.	.	COc1cccc(NC(=O)CSc2nnc(Cc3ccc(C)cc3)c(=O)n2N)c1
-5%	5.3%	-3%	-9	COc1ccc(CC(=O)NC(C)(C)CC(C)=O)cc1OC
19%	-0.1%	2%	3	O=S(=O)(c1ccc(Oc2ccc(S(=O)(=O)N(CCO)CCO)cc2)cc1)N(CCO)CCO
0%	-0.3%	-1%	4	CCN(Cc1ccncc1)C(=O)c1cc(Br)cc(Br)c1O
9%	1.3%	4%	1	COc1ccc(CC2(CO)CCN(Cc3cnc(-c4ccccc4C)nc3)CC2)cc1
0%	-0.9%	2%	-9	CCN(CC)S(=O)(=O)c1ccc(OC(C)C)nc1
4%	0.0%	-4%	2	Cc1ccc(S(=O)(=O)Cc2ccc(C(=O)NCCCN3CCN(C)CC3)o2)cc1
1%	-1.5%	.	.	O=C(CCNC(=O)c1ccc([N+](=O)[O-])cc1)NCc1ccco1
5%	2.9%	-43%	.	O=C(CSc1cn[nH]n1)Nc1nc2ccccc2s1
-9%	0.4%	0%	4	CCCCc1ccc(NC(=S)NCCCN2CCOCC2)cc1
12%	-0.2%	28%	7	CCCC(=O)Nc1ccc(N2CCN(C(=O)CCC)CC2)cc1
-9%	-4.7%	-19%	0	CN1CCSc2ccc(C(=O)Nc3cccc(F)c3)cc21
1%	-0.8%	21%	8	Cc1nc(N2CCN(C(=O)c3ccc(Cl)cc3)CC2)c(C#N)c2c1COC(C)(C)C2
-3%	1.0%	-18%	-11	Cc1ccc(C(=O)c2nc3c(n2O)CCCC3)cc1
10%	1.0%	.	.	CC(C(=O)Nc1ccc(S(=O)(=O)Nc2ncccn2)cc1)N1C(=O)c2ccccc2S1(=O)=O (stereo not drawn)
0%	6.6%	-1%	-1	CCOC(=O)c1nc(C)c(C(C)=O)s1
5%	-2.4%	4%	2	COc1cc(C(=O)NC(CCSC)C(=O)OCC(=O)C(C)(C)C)cc(OC)c1OC (stereo not drawn)

# Compound profiles, from the list above. Values in the order: Rango release inh | Rango-impB inh | miR-21 reporter | GLA inh pH 4.5
# `CCOC(=O)C1CCN(CC(=O)N2CCc3ccccc32)CC1` is listed as -3% | -1.9% | -8% | .
# `CC(=O)c1cnc(-c2ccccn2)s1` is listed as -11% | ? | -21% | -5
# `CCCCn1c(=O)[nH]c(=O)c2c(C(=O)OCC)cc(-c3ccc(OC(F)F)cc3)nc21` is listed as 21% | -2.1% | 1% | 2

# A few values from above.
# For Rango release inh, `COc1cccc(CC(NC(C)=O)C(=O)NC2CCN(C(=O)C3CCCCC3)CC2)c1OC` (stereo not drawn) is entered as -2%
# For Rango-impB inh, `Cc1sc2nc[nH]c(=O)c2c1-c1ccc(F)cc1` is entered as -2.4%
# For miR-21 reporter, `Cc1ccccc1CC1SC(N=C(N)N)=NC1=O` (stereo not drawn) is entered as -21%

# Next compounds
Rango release inh	Rango-impB inh	miR-21 reporter	GLA inh pH 4.5	SMILES
-13%	1.5%	10%	-2	O=c1[nH]c(CN2CCN(c3ccccc3)CC2)nc2scc(-c3ccccc3)c12
-1%	-1.9%	-10%	2	O=S(=O)(c1ccccc1)c1nc(-c2ccco2)oc1N1CCOCC1
-10%	0.0%	1%	5	C(=C\c1ccccc1)/CSc1nnc(-c2ccncc2)n1Cc1ccco1
-16%	7.8%	-9%	6	CCOC(=O)C1=C(C)N(C)C(=O)NC1c1ccccc1OC (stereo not drawn)
-8%	0.3%	-3%	5	COC(=O)CSc1nc(NC(C)=O)nc(C)c1Br
-2%	0.2%	-5%	-7	Cc1cc(C2=NNC(=Nc3ccc(S(=O)(=O)N4CCOCC4)cc3)SC2)c(C)n1C
10%	3.4%	.	.	COc1cccc(CNC(=O)COC(=O)c2nn(C)c(=O)c3ccccc23)c1
13%	1.1%	.	.	O=C(OCC(=O)N1CCC(Cc2ccccc2)CC1)c1cccnc1Cl
-5%	-0.4%	.	.	Cc1ccc(S(=O)(=O)CC(=O)N(CCCN2CCOCC2)c2nc3c(F)cccc3s2)cc1
0%	6.4%	12%	.	COc1cccc(C(=O)Nc2cc(C)nn2-c2ccccc2)c1OC
?	1.1%	-4%	5	Cc1noc(C)c1S(=O)(=O)N1CCN(Cc2ccc3c(c2)OCO3)CC1
1%	-5.0%	.	.	S=C(NC1CCCCC1)NN1CCCCCC1
-5%	3.3%	1%	1	Cc1cccc2cc(CN(CC3CCCO3)C(c3nnnn3Cc3ccco3)C(C)C)c(=O)[nH]c12 (stereo not drawn)
-20%	1.1%	.	.	O=c1oc(CCCO)cc2ccc(Br)cc12
7%	4.5%	-6%	4	O=C(Nc1ccc(F)c([N+](=O)[O-])c1)c1cccs1
-7%	-1.5%	-3%	4	Cc1cc(C)c(S(=O)(=O)NNC(=O)C2CCN(Cc3ccccc3)CC2)c(C)c1
-5%	2.8%	-27%	.	CSc1ccc(-c2sc(Nc3ccccc3)n[n+]2-c2ccccc2)cc1
6%	-1.1%	-3%	-6	O=C1N(C2CCCC2)C[C@@H]2C[C@@H](c3cn[nH]c3-c3ccc(Cl)cc3)N3CCC[C@@]123
14%	-1.7%	-2%	.	CCc1ccc(OCC(=O)Nc2ccncc2)cc1
-12%	1.4%	-5%	4	CC1CCC(N2CCN(c3ncccn3)CC2)C1 (stereo not drawn)
6%	-0.5%	-1%	-5	CCCCn1c(S(=O)(=O)O)nc2ccccc21
-2%	-0.9%	8%	-3	O=C(C[n+]1ccc2ccccc2c1)c1cccc2ccccc12
15%	2.8%	.	.	C[C@H]1CN(S(=O)C(C)(C)C)[C@@H](CCO)/C1=C\c1ccccc1 (stereo partly drawn)
-7%	6.2%	5%	-4	COc1ccccc1N1CCN(C2CCN(S(=O)(=O)c3ccc(C)cc3)CC2)CC1
0%	-0.7%	-16%	.	COC(CNc1ncnc2sc(-c3ccccc3)cc12)OC
10%	0.2%	.	.	COC(=O)c1sccc1NC(=O)c1cccc(Cl)c1
11%	1.4%	-45%	0	Cc1ccccc1Nc1nnc(SCC(=O)Nc2ccccc2[N+](=O)[O-])s1
?	-3.6%	-2%	-4	COc1ccc(CC2(CO)CCN(C(C)Cc3ccc(Cl)cc3)CC2)cc1 (stereo not drawn)
-6%	-4.2%	-15%	7	O=C(NCC1CCCO1)c1cc(C(=O)C2CCCCC2)c[nH]1 (stereo not drawn)
15%	0.1%	10%	0	COc1ccc(NC(=O)CSc2nnc(C3CCCCC3)n2-c2ccccc2)cc1
5%	3.2%	-7%	0	C/C(=N\NC(=O)c1nnn(-c2nonc2N)c1COc1ccc(F)cc1)c1ccc(Cl)cc1
0%	-1.5%	-14%	.	Cc1c(C)c2c(OCC(=O)NCCCO)cc3c(c2oc1=O)CCC(C)(C)O3
0%	0.1%	-2%	-16	COC(=O)c1ccccc1NC(=S)NC(C)=O
-26%	-2.7%	-46%	7	Fc1cccc(NCc2cn3ccccc3n2)c1
?	?	-12%	.	COc1cc(/C=C(\C#N)C(=O)Nc2ccccn2)ccc1O
-7%	-1.3%	?	-8	Cc1nc(N/N=C/c2ccccn2)sc1C
-10%	-1.9%	-3%	14	O=C(O)c1ccc(-c2nc(-c3ccccc3)c(-c3ccccc3)[nH]2)cc1
-8%	0.6%	2%	.	Cc1ccccc1NC(=O)C1CCCN(c2ncnc3onc(-c4ccc(F)cc4)c23)C1 (stereo not drawn)
2%	0.8%	.	.	C[C@H](CO)N1C[C@H](C)[C@@H](CN(C)C(=O)Nc2ccc3c(c2)OCO3)Oc2ccc(NC(=O)Cn3cnnn3)cc2C1=O
10%	1.7%	7%	.	Cc1cccc(/C=C2\Sc3ccc(C(=O)NCC4CCCO4)cc3N(C)C2=O)c1 (stereo not drawn)
-15%	-0.5%	-2%	-6	Cc1onc(-c2ccccc2Cl)c1C(=O)Nc1nnc(Cc2ccc(Cl)cc2)s1
-1%	-0.9%	0%	.	O=C(CCN1C(=O)S/C(=C\c2ccccc2)C1=O)Nc1ccc(O)cc1C(=O)O
4%	-1.0%	-10%	-27	O=C(NCC1OCCCN1S(=O)(=O)c1cc(F)ccc1F)C(=O)NC1CCCCC1 (stereo not drawn)
-2%	1.5%	.	.	CSCCC(NC(=O)c1ccccc1)C(=O)NCCc1ccc2c(c1)OCCO2 (stereo not drawn)
14%	-1.6%	-28%	2	O=C(CSc1nc2ccsc2c(=O)n1NC(=O)c1ccccc1)Nc1nccs1
-22%	?	0%	12	COC(=O)c1ccc(N2NC(=O)/C(=C/c3ccc(-c4ccc(Cl)c(C(=O)O)c4)o3)C2=O)cc1
0%	-7.4%	1%	6	c1coc(CNC2CCCCC2)c1
-9%	2.8%	-47%	7	c1ccc(CCNc2nc(-c3cccnc3)cs2)cc1
-22%	5.2%	-24%	.	Clc1ccc(-c2csc(N3CCCCCC3)n2)cc1
0%	0.0%	.	.	O=C(Nc1ccncc1)C1CC(=O)N(c2ccccc2)C1 (stereo not drawn)
-15%	0.8%	.	.	COc1ccc(N(C)S(=O)(=O)c2ccc(Cl)c(C(=O)NNC(=O)c3ccccc3O)c2)cc1
0%	?	.	.	O=C(Nc1nnc(C2CC2)s1)c1cc2ccccc2o1
0%	3.3%	5%	.	COc1ccc(N2CCN(S(=O)(=O)c3ccc4oc(=O)ccc4c3)CC2)cc1
?	?	-7%	-10	O=C(C[n+]1ccc(C(=O)N/N=C/c2ccc(O)cc2)cc1)c1ccccc1
-11%	0.5%	-1%	0	Cc1cc(=O)oc(C)c1C(=O)N1CCN(C)CC1
-4%	-0.6%	-3%	0	CCN(CC)CCOC(=O)c1ccc(NC(=O)CNC(=O)c2ccccc2)cc1
-9%	-0.8%	5%	-2	COc1ccccc1C1C(C(N)=O)=C(C)Nc2nc(-c3ccccc3Cl)nn21 (stereo not drawn)
12%	-1.8%	18%	-4	CC(=O)c1cc2c(cc1NS(=O)(=O)c1ccc(C)cc1)OCCO2
-10%	0.2%	.	.	CCOC(=O)N1CCC(NC(=O)c2ccc3c(c2)N(CC)CCS3)CC1
-11%	-1.7%	-7%	0	COc1cc2c(cc1OC)C(=O)NCC(C)(C)O2
.	.	?	1	C=CCN1C(=O)N/C(=C/c2ccc(N3CCOCC3)o2)C1=O
-7%	-3.5%	1%	0	Cc1ccccc1Nc1nnc(SCC(=O)NC(=O)NCc2ccco2)s1
1%	0.6%	-2%	-1	O=C(Cn1cc2c(n1)CCCCC2)NC1CCN(Cc2ccccc2)CC1
